Source: PubChem BioAssay
miR-21 reporter: miR-21 reporter, rising signal. HeLa miR-21 FLuc reporter, luciferase, 48 h. Potency, µM (doses to about 38.3 µM), for inactives: at the highest dose reporter change, positive = more light. 340,000 tested, under 10 active; active = well fitted rising curve with a large enough effect; inconclusive = small, poorly fitted or top-dose-only effect; inactive = no such curve, though single readings can be large or run the other way;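 further: % of control where 0% means no effect; miR-21 action dims this reporter so a rising signal means less miR-21 action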
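HeLa cells endogenously expressing miR-21, stably carrying CMV-driven firefly luciferase with a downstream miR-21 binding site, 2000 cells/well. Titrations up to approximately 40 uM, 48 hours; luciferase luminescence read.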
Rango complex inh: Rango-importin beta binding inhibition. Q14974. Rango CFP/YFP FRET sensor + importin beta, 45 min. Potency, µM (highest dose often 92.2 µM), inactives show top-dose inhibition of complex formation. actives 0.031% (n = 340,000); active = rising FRET ratio curve, often small or poorly fitted; inconclusive = mostly compound fluorescence or quenching in the first reads; inactive = flat curves in all reads;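 further: potency means the concentration at half of the fitted maximal effect; 0% = DMSO wells and 100% = buffer wells lacking importin beta; nearly all actives have a fitted effect of over 15% in size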
Target sequence (Q14974 whole entry, looked up): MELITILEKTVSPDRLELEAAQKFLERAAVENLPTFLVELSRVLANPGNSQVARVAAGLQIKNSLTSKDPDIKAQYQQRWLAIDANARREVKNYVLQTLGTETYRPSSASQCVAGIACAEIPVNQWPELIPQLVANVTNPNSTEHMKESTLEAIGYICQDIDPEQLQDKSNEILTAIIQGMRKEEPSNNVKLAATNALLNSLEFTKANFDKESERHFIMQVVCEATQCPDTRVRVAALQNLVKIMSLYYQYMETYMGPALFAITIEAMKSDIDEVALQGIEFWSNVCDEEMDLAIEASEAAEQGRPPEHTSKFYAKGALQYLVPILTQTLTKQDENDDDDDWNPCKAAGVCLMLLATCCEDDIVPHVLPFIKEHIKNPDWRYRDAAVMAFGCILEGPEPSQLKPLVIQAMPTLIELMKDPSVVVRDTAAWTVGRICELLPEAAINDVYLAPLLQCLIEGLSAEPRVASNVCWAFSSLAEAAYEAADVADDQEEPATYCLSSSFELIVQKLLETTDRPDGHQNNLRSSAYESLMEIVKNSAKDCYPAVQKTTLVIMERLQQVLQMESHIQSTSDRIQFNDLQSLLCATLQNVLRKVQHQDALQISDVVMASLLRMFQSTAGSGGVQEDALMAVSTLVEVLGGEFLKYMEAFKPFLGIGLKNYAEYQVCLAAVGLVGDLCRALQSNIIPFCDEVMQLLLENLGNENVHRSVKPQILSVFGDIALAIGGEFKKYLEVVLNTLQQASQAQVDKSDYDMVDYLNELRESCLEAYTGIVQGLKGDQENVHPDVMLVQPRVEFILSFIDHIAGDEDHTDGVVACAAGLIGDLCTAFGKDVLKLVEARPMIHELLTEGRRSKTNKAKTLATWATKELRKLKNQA
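FRET biosensor (snurportin 1 IBB flanked by EYFP and cerulean), 50 nM, with compound 5 min, then 0.125 microM importin beta in PBS, 1 mM DTT, 0.02% Tween-20, 0.1% BSA. CFP/YFP ratio read after 45 min at room temperature; pre-read flags interference.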
GLA inh pH 4.5: blocks human alpha-galactosidase A at pH 4.5; P06280; purified enzyme, 4-MU-alpha-Gal fluorescence, pH 4.5; activity change, negative = inhibition, % at 105 µM; 230,000 tested, under 10 active; inconclusive = small, poorly fitted or top-dose-only inhibition, or a rising curve; inactive = flat fitted curve, though single readings scatter; no compound was filed as active;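 further: 0% = full activity with enzyme and -100% = basal without enzyme; dose as in the result columns while the protocol names 77 µM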
Rango dissoc inh: inhibition of RanGTP-driven Rango-importin beta dissociation. O95149+P62826. Biochemical FRET Rango-importin beta, RanGTP-induced dissociation. Potency, µM (titrated, usually from 46.1 µM), for the others: at the top dose activity change, negative = inhibition. actives 0.071% (n = 340,000); active means falling FRET ratio curve, often poorly fitted, with flat reads before Ran was added; inconclusive means other falling curves, or compound fluorescence or quenching; inactive means flat or rising ratio curve;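 further: potency means the concentration at half of the fitted maximal effect; % of control where 0% means no effect; nearly all actives have a fitted effect of over 45% in size; -100% = wells without RanGTP and RCC1; the record marks most hits as doubtful in a second field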
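Rango/importin beta premix (0.1/0.25 uM final), PBS + 1 mM DTT + 0.02% Tween-20 + 0.1% BSA; cpd 5 min RT; FRET pre-read; + RanGTP-RCC1 (0.6 uM Ran, 2 mM GTP, 0.2 uM RCC1); 45 min RT; FRET post-read, ex 430, em 486/530 nm.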
* = called active by the depositor; ? = inconclusive; . = no result given; & = joins results of further samples; [ ] = dose if it differs, or a comment. This is a subset (hit frequency here may not be typical).

Every second line gives: miR-21 reporter, Rango complex inh, GLA inh pH 4.5, Rango dissoc inh
- O=C1COC(c2ccccc2)C2CCCCN12 (configuration not stated)
→ -2%, 3.2%, -2, -10%
- Cc1ccc(C(=O)NCCn2ccc3ccccc32)cc1[N+](=O)[O-]
→ -15%, 0.1%, 8, -6%
- O=C1CCCC(O)=C1N=Nc1cccc(C(=O)O)c1
→ -44%, 1.2%, -3, -11%
- CCCCNS(=O)(=O)CCNCc1ccccc1OC
→ ., -1.3%, ., 32%
- COc1ccc(N2CCOCC2)c(NC(=O)COc2cccc(C)c2)c1
→ -7%, 0.7%, ., 15%
- Cc1cccc(C(=O)OCc2cc(=O)oc3c(C)c(C)ccc23)c1O
→ -1%, 0.5%, ., -17%
- COc1ccc(OC)c(N(CC(=O)Nc2ccccc2C(=O)NCc2ccco2)S(C)(=O)=O)c1
→ -1%, 3.4%, 2, 17%
- COc1cc(/C=N/NC(=O)CC#N)cc(Br)c1O
→ 4%, ?, 6, ?
- O=S(=O)(c1ccccc1)c1nc(-c2cccs2)oc1NCCCn1ccnc1
→ -4%, -0.5%, -11, 2%
- CCOC(=O)c1c(NC(=O)C2CCCO2)sc(C(=O)OC(C)(C)C)c1C (configuration not stated)
→ 0%, 0.5%, 5, ?
- COc1ccc(OC)c(C(=O)c2ccc([N+](=O)[O-])cc2)c1
→ ., -2.6%, ., -9%
- CC(C)Oc1nc(-c2ccccc2O)nc2ccccc12
→ -4%, 0.1%, -1, 26%
- COc1ccc2cc3c(N)nn(C(=O)c4ccc(F)cc4)c3nc2c1
→ 21%, 1.9%, 4, 4%
- O=C(c1cccc([N+](=O)[O-])c1)N1CC2C3C=CC(C3)C2C1 (configuration not stated)
→ -5%, -4.2%, -13, -13%
- FC(F)Oc1ccc(/C=N/c2c(-c3ccc(OC(F)F)cc3)nc3n2CCS3)cc1
→ -20%, -5.4%, 4, 7%
- COc1ccc(NC2=CC(c3cccc(OC)c3)N(c3ccc(OC)cc3)C2=O)cc1 (configuration not stated)
→ -23%, -1.9%, -7, -7%
- Cc1nc2sccc2c(=O)n1-c1cccc(Cl)c1
→ -5%, 1.2%, -3, 22%
- CC1COC2C(O1)N(S(C)(=O)=O)CCN2S(C)(=O)=O (configuration not stated)
→ -4%, -0.4%, 12, 11%
- COc1ccccc1N1CCN(C2CC(=O)N(c3cccc(Br)c3)C2=O)CC1 (configuration not stated)
→ -13%, 0.5%, ., 5%
- O=C(c1ccccc1)c1ccc(N2CCN(C(=O)c3cccc(F)c3F)CC2)c(F)c1
→ 24%, -3.8%, ., 17%
- Cn1c2ccccc2c2ncn(Cc3ccco3)c(=O)c21
→ -28%, -4.1%, 5, -6%
- O=C(NC(=S)Nc1ccc2[nH]c(=O)[nH]c2c1)c1ccccc1[N+](=O)[O-]
→ -37%, -0.6%, ., -1%
- COc1ccc2[nH]cc(CCNC(=O)C3CCCO3)c2c1 (configuration not stated)
→ 0%, -1.3%, 1, 6%
- CCOc1ccc(C2(C)CC(=O)N(C)C2=O)cc1 (configuration not stated)
→ 1%, -0.7%, ., -2%
- Cc1cc(C)c(C)c(OCCNCc2ccccc2)c1
→ -1%, 1.4%, ., ?
- COc1ccc(CNc2nc3ccccc3n2Cc2ccc(C)cc2)cc1OC
→ 19%, -1.7%, 13, 5%
- COCCCNc1nc2c(-c3cccc(C(F)(F)F)c3)nnn2c2ccccc12
→ -22%, 0.1%, 20, 1%
- Oc1ccc(/C=N/N2CCN(c3ccccn3)CC2)cc1
→ -36%, -1.8%, 4, 24%
- Cc1nn(-c2cc(N3CCOCC3)ccc2N)c(=O)c2ccccc12
→ 2%, -0.2%, -4, -11%
- O=C(C1CC1)N1CCc2cc(S(=O)(=O)NCCCN3CCCCC3)ccc21
→ 1%, -0.6%, ., -8%
- CN(C)C(=O)CSc1nnc2sc3ccccc3n12
→ -15%, -4.9%, -3, -18%
- O=C(Nc1ccc(S(=O)(=O)NC2CCCCC2)cc1)c1ccc(Br)o1
→ 9%, 1.0%, -10, 0%
- Oc1ccc(C[C@H]2CNCCN2CCc2cc(C(F)(F)F)cc(C(F)(F)F)c2)cc1
→ ., 1.5%, ., 0%
- COc1ccc(N2CC(C(=O)Nc3cc(C)on3)CC2=O)cc1 (configuration not stated)
→ -4%, 1.7%, -11, 0%
- COc1ccccc1C(O)(C(=O)NN(C)c1ccccc1)c1ccccc1OC
→ 0%, 0.1%, 16, 30%
- COC(=O)c1ccc(Cn2cnc3c(cnn3-c3ccc(Cl)cc3)c2=O)o1
→ -5%, -3.4%, 0, -1%
- CCN(Cc1nc2cc(Cl)ccc2c(=O)[nH]1)C(=O)c1nn(C)c(=O)c2ccccc12
→ ., -2.3%, ., 3%
- CC(C)N(Cc1ccccc1)C(=O)COC(=O)c1ccc(O)cc1
→ ., -3.6%, ., 14%
- CCN(CC)CC#CC(O)(c1ccccc1)c1ccccc1
→ -1%, 0.1%, 0, -9%
- Cc1ccccc1NC(=O)C(C)OC(=O)CNS(=O)(=O)c1ccc(C#N)cc1 (configuration not stated)
→ ., -0.6%, ., 1%
- COc1ccc(S(=O)(=O)c2cnc3ccc(OC)cc3c2N2CCC3(CC2)OCCO3)cc1
→ 0%, -1.4%, -11, -1%
- CCS(=O)(=O)/N=C(\N)c1ccccc1
→ -2%, -0.4%, 0, 0%
- Cc1ccc(NC(=O)CN(C)C(=O)c2ccc(Cl)c([N+](=O)[O-])c2)cc1
→ -1%, -2.8%, 14, 2%
- C=CCn1c(SCC(=O)Nc2ccc(C(=O)OCC)cc2)nnc1-c1cccs1
→ 0%, -0.5%, -7, -6%
- O=C(N[C@@H](Cc1ccc(Br)cc1)C(=O)O)OCC1c2ccccc2-c2ccccc21
→ -4%, 2.8%, ., 0%
- C/C(N)=C(/C#N)C(=O)CSc1nnc(Nc2cccc(C)c2C)s1
→ -43%, 1.3%&2.9%, 5, -3%&-2%
- CCN1CCN(C(=O)CS(=O)(=O)Cc2nc(-c3cccc(OC)c3)oc2C)CC1
→ -3%, -0.5%, ., 3%
- COc1ccc(/C=C/C(=O)c2ccccc2O)cc1
→ -52%, -1.6%, -3, 0%
- Cc1ccc(C(C)NC(=O)/C(C#N)=C\c2c(C)[nH]c3ccccc23)cc1 (configuration not stated)
→ 9%, 0.1%, -8, -22%
- CCCCC(C)(O)C/C=C/[C@H]1[C@H](O)CC(=O)[C@@H]1CCCCCCC(=O)OC (some centres not stated)
→ -17%, ., -20&-8, .
- CC(=O)Nc1ccc(NC(=O)c2c([N+](=O)[O-])c(C(C)(C)C)nn2C)cc1
→ 6%, -3.7%, 0, 2%
- Cc1ccc(S(=O)(=O)NCC(=O)OC(C)C(=O)NC2CCCCC2C)cc1C (configuration not stated)
→ ., -4.0%, ., 14%
- CC(=O)Nc1cccc(C(=O)N/N=C/c2c[nH]c3ccccc23)c1
→ -18%, -1.2%, ., -12%
- COC(=O)/C(C#N)=C/c1cc(C)sc1C
→ -2%, -2.3%, -6, 0%
- CCN(C(=O)CN1CCCCC1)c1c(N)n(Cc2ccccc2)c(=O)[nH]c1=O
→ ., -5.3%, ., 5%
- c1ccc(OCCOc2ncnc3ccccc23)cc1
→ -50%, -2.2%, 14, 40%
- CCOc1ccc(NC(=O)CN(C)C(=O)c2nc3nc(C)cc(C)n3n2)cc1OCC
→ ., ?, ., 9%
- O=C(NC(=S)Nc1ccccc1Br)C1CCC1
→ -39%, -0.4%, ., -10%
- N=c1sccn1CC(=O)Nc1cccc(S(=O)(=O)N2CCCCCC2)c1
→ 4%, 0.4%, 0, 0%
- CCCn1nnc(NC(=O)/C=C/c2ccco2)n1
→ -8%, -0.7%, 1, 8%

Remaining list, next part
Every second line gives: miR-21 reporter, Rango complex inh, GLA inh pH 4.5, Rango dissoc inh
- COc1ccc(C2=NN(C(=O)CCC(=O)O)C(c3ccc(OC)cc3)C2)cc1 (configuration not stated)
→ 0%, -1.2%, ., -3%
- Cc1ccc(Cc2cnc(NC(=O)/C(C#N)=C/c3ccc(-c4cccc([N+](=O)[O-])c4)o3)s2)cc1
→ -1%, -2.5%, -4, 2%
- Cc1ccccc1CS(=O)(=O)CCC(=O)NCCN1CCN(c2cccc(Cl)c2)CC1
→ 6%, -3.9%, 4, 18%
- N/C(CN1CCCC1=O)=N\OC(=O)c1ccc(Cl)cc1
→ -31%, 3.6%, -1, 5%
- CCN(CC)CCNC(=O)c1ccc(Sc2ccc(Cl)cc2)c(NC(C)=O)c1
→ 0%, -1.3%, 2[21.1 µM], 2%
- O=C(Cc1ccc([N+](=O)[O-])cc1)c1c(O)cc(O)cc1O
→ -6%, 1.3%, -1, 10%
- COc1ccc(O)c(/C=N/N=C/c2cccc([N+](=O)[O-])c2)c1
→ 0%, 2.8%, ., 0%
- Cc1ccc(C(=O)ONc2ccc(N=O)cc2)cc1
→ 1%, -0.9%, -7, 4%
- COC(=O)c1ccc(C(=O)OC)c(NC(=S)N2CCN(c3ccccn3)CC2)c1
→ -3%, -1.4%, -1, -16%
- CCOc1ccc(C(c2nnnn2Cc2ccccc2)N2CCN(C(=O)c3ccco3)CC2)cc1 (configuration not stated)
→ ., -3.4%, ., -8%
- CCCCNCCS(=O)(=O)NCc1ccccc1OC
→ ., -0.2%, ., 0%
- CC(C)C[C@H](NC(=O)c1[nH]cnc1C(=O)Nc1ccccc1)C(=O)OC(C)(C)C
→ 18%, -5.3%, -19, 15%
- CCCCCNC(=O)Cc1cc(=O)[nH]c(=O)[nH]1
→ -1%, ?, 5, -30%
- CC1(C)c2[nH]c3ccccc3c2C[C@H]2C(=O)N(Cc3cccc(F)c3)C(=O)N21
→ ., ?, ., ?
- N#CCc1nc(CSc2nc3ccccc3s2)cs1
→ -50%, -0.1%, -10, -11%
- CCOC(=O)CSc1nnc(NC(=O)c2cccc(S(=O)(=O)N3CCCCC3)c2)s1
→ -6%, 1.4%, -3, -4%
- O=C(OCCN1C(=O)c2ccccc2C1=O)c1cc2ccccc2o1
→ -1%, 1.5%, 6, 27%
- Cc1cccc(NC(=O)/C(C#N)=C/c2ccc(Cl)cc2)n1
→ -1%, 0.0%, ., -9%
- CN(CC(=O)Nc1ccc(N2CCOCC2)cc1)C(=O)C1CCCC1
→ 2%, 1.2%, 2, 0%
- Cc1noc(C)c1COc1cccc(C(=O)NC(C)(C)C)c1
→ -1%, -1.0%, 1, 8%
- CCC(CO)Oc1cc(NC(=O)c2cccc3ccccc23)c2ncn(C(C)C)c2c1 (configuration not stated)
→ ., 1.1%, ., 2%
- Nc1cccc(Nc2ccccc2)c1
→ -10%, 1.0%, 3, 1%
- O=C1NCCN(CC2CCN(CCc3ccc(Cl)c(Cl)c3)CC2)C1=O
→ ., 2.3%, ., -13%
- CN1c2ccc([N+](=O)[O-])cc2N(C)C1(C)c1ccccc1 (configuration not stated)
→ 14%, 3.3%, ., 3%
- O=C(NC1CCCCC1)c1cc(C(=O)c2ccccc2Br)c[nH]1
→ -5%, 3.7%, -1, 6%
- O=C(Nc1nccs1)c1cccnc1
→ 2%, -1.7%, ., -11%
- O=S(=O)(Nc1ccc(N2CCCCC2)cc1)c1cccs1
→ -30%, 1.1%, -18, 4%
- COc1ccc(C(C)(C)C)cc1NC(=O)C1CC=CCC1C(=O)O (configuration not stated)
→ -7%, -6.8%, 10, 3%
- NS(=O)(=O)c1ccc(CCNC(=O)COC(=O)C2CCC2)cc1
→ 0%, -0.8%, ., 1%
- Cc1ccc(-c2cc(=O)c3cc(C)ccc3[nH]2)cc1
→ 18%, 3.6%, 0&-3, -15%
- O=C(NCCSCc1ccccc1)c1cc(S(=O)(=O)N2CCOCC2)ccc1F
→ -7%, -1.4%, 5, -13%
- CCOC(=O)N1CCN(C(=O)Cc2ccc(C)cc2)CC1
→ -5%, -0.1%, 1, 1%
